Source: PubChem BioAssay
RGS16-Gao HTS: RGS16-Galphao interaction regulator (human); AID 1441; 0.38% of 220,000 active; bead-based flow cytometry RGS16-Galphao binding, fluorescence; actives lie on both sides; binding response (% of control), % at 10 µM; O15492+P09471;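 active means below 25% or above 175%, edge rows of some plates excepted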;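 further: Galphao activated by GDP with aluminum fluoride before binding; 100% = wells without compound and 0% = beads without RGS; some results beyond the cut were filed as inactive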
Target sequence (O15492 whole entry, looked up): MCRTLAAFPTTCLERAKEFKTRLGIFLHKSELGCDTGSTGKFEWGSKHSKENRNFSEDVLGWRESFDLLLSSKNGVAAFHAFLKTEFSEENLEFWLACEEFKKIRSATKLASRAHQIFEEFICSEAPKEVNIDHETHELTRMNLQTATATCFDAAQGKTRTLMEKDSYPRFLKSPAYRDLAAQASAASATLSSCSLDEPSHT
Target sequence (P09471 whole entry, looked up): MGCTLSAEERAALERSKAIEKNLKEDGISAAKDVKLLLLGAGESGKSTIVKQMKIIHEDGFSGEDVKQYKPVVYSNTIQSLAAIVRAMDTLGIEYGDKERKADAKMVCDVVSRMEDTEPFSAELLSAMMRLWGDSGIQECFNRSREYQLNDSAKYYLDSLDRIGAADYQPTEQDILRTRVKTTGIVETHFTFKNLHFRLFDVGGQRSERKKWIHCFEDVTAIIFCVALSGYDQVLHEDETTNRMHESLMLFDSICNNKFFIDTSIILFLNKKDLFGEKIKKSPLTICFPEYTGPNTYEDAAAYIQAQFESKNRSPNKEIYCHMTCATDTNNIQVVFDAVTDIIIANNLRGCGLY
GALR2 ag: activates the human galanin receptor 2; activation, %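 (tested at 5 µM)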; GALR2-expressing cells, agonist activation read-out; AID 803; 0.48% of 140,000 active; O43603;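 active means above mean plus 3 SD of all compounds, about 5% in these data, not always enough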;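 further: 0% = vehicle buffer wells and 100% = reference agonist at full effect; tested in CHO reporter cells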
Target sequence (O43603 whole entry, looked up): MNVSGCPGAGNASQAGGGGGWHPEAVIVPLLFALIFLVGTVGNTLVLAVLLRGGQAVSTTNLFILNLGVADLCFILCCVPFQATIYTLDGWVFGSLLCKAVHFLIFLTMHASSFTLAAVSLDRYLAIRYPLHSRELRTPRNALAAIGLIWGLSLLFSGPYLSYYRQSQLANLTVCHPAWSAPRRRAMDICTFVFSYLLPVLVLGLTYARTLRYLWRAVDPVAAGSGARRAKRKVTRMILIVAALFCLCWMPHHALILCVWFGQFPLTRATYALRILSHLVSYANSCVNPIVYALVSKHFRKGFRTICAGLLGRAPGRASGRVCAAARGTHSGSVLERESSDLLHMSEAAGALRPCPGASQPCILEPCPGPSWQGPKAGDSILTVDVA
INS promoter inh: TRM-6 insulin promoter activity inhibition; inhibition, % at 2 µM; TRM-6 cells (human fetal islet line), insulin promoter-eGFP reporter, imaging; reporter expression induced with tamoxifen; 0.9% of 130,000 active;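 active means inhibition above the mean plus 3 SD, with well images judged a real hit on visual review, cut at about 60% in these data, passing the limit was not always enough; inconclusive means inhibition over the cutoff but images rejected on review; inactive means inhibition not above the cutoff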
PKD1 kinase inh: PKD1 (human) kinase inhibition; PKD1 kinase fluorescence polarization assay; inhibition, %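 (about 10 µM by stock and volumes)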; 0.056% of 200,000 active;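 active means inhibition of 50% or more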;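 further: controls were vehicle for no effect and a reference inhibitor for full effect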
HSV replic up: HSV replication enhancement; HSV replication augmentation in cells, fold increase; maximum fold increase; 0.005% of 220,000 active; AID 1956;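 active means peak rise of 1.5-fold or more in the series; inconclusive means self-fluorescent or not available for retest; tested in PC3 cells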;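 further: first round at 10 µM; read as green reporter fluorescence; hits show the peak of a series up to 25 µM; 1 = signal of infected wells without compound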
INS promoter inh cell count: recorded beside INS promoter inh, whose call it bears; normalized cell count, %; measured here: cell count, toxicity; reference of the scale not given here;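 cells exposed to compound for 48 h; stained nuclei by imaging scaled within each plate; lower means fewer cells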
HSV replic up primary fold: further read-out of HSV replic up, marked with its call; fold increase; compound at 10 µM; measured here: primary screen fold increase 10 uM; tested in PC3 cells;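 GFP signal in the first replicate; 1 = infected wells without compound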
An asterisk follows results filed as active; i = inactive; u = inconclusive; x = no result given; & = joins results of further samples; [ ] = dose if it differs, or a comment. Random draw from the library. About 1.2% of those tested had a hit in this group.

Each structure is followed by: RGS16-Gao HTS, GALR2 ag, INS promoter inh, INS promoter inh cell count, PKD1 kinase inh, HSV replic up, HSV replic up primary fold
CNC(=S)Nc1ccc(C)c(NC(=S)NC)c1
→ 98, x, -45, 46, -12, i, 1.1
COc1ccc(COc2cc(-c3cccc(OC)c3)nc3ccc(NC(=O)c4ccc(OC)cc4)cc23)cc1
→ 98, -1.3, -40, 53, -4, i, 0.49
O=C(Cn1nc(C(F)(F)F)c2c1CCCC2)NCCN1CCOCC1
→ 101, -2.6, 3, 103, -7, i, 0.71
COc1cccc(-c2cc(C(=O)N/N=C/c3ccc(OC)c(COC(C)=O)c3)c3ccccc3n2)c1
→ 93, -3.4, -30, 81, -5, i, 0.92
Cc1[nH][nH]c(=O)c1C(c1ccc(-c2ccc(Cl)c(C(=O)O)c2)o1)c1c(C)[nH][nH]c1=O
→ 96, x, x, x, -3, i, 0.95
Oc1ccc(C[C@H]2CNC(=S)N2CCc2cc(C(F)(F)F)cc(C(F)(F)F)c2)cc1
→ 102, x, x, x, 2, i, 0.73
CC(=O)Nc1cccc(C(=O)Nc2nc(C)cs2)c1
→ 100, x, x, x, -1, i, 0.94
Cc1cc(=O)oc2cc(OCC(=O)OC(C)C(=O)NC3CCCC3)ccc12 (stereo not given)
→ 94, x, x, x, 1, i, 0.92
N#Cc1ccc(Oc2ccc(C(N)=O)cc2)cc1C#N
→ 40, -0.8, 52, 50, -1, i, 0.92
C/C=C(/C)C(=O)Nc1cccc(C2=NOC3(C2)C[C@@H](C(N)=O)N(C(=O)[C@H]2CCC(=O)N2)C3)c1 (stereo not given in full)
→ 95, x, x, x, x, i, 0.85
Cc1ccccc1OCC(=O)OCC(=O)c1ccc(OCc2ccccc2)cc1
→ 60, -0.3, 24, 96, 3, i, 1.1
CS(=O)(=O)N1CCC(C(=O)NCc2ccco2)CC1
→ 102, 0.0, 0, 105, -9, i, 0.97
CCc1nc(N)nc2c1C(=O)CC(C)(C)C2
→ 102, 0.2, x, x, -1, i, 0.84
O=C(c1cc2ccccc2oc1=O)N(Cc1ccc2c(c1)OCO2)Cc1ccco1
→ 115, -1.0, 18, 94, -7, i, 0.79
CCn1c(C)nc2cc(C(=O)NNS(=O)(=O)c3c(C)c(C)cc(C)c3C)ccc21
→ 102, -1.6, 20, 122, -3, i, 0.9
CCOC(=O)/C=C/C(=O)OCC(=O)Nc1ccc(OC)c(Cl)c1
→ 104, -0.9, x, x, -17, i, 0.88
COc1ccc(C(=O)N[C@H](C(=O)Nc2nc3c(s2)CCCC3)C(C)C)cc1
→ 106, -0.6, 0, 127, -5, i, 0.9
O=C(Nc1nc2ccccc2[nH]1)C1CC1
→ 104, x, x, x, 0, i, 0.7
CCCCCCOC(=O)C(C#N)c1nc2ccccc2nc1N1CCCCC1 (stereo not given)
→ 360, -2.3, -14, 152, -2, i, 1
COc1ccc(CCNC(=O)CSc2ccccc2)cc1OC
→ 113, 0.7, -44, 126, -3, i, 1
CCCCNc1nnc(SCC(=O)c2c[nH]c3ccccc23)s1
→ 112, -0.7, -43, 111, -10, i, 0.99
Cc1cc(C)nc(NC(=O)c2cc(-c3ccc(C)s3)nc3ccccc23)c1
→ 107, -0.2, -23, 122, 2, i, 0.93
Cc1cc(C)cc(N(CC(=O)O)S(=O)(=O)c2c(C)[nH]c(=O)[nH]c2=O)c1
→ 95, x, x, x, 2, i, 1.1
Cc1nc(SC2CC(=O)N(c3ccccc3)C2=O)n[nH]1 (stereo not given)
→ 164, x, x, x, -7, i, 0.99
OC1(c2cccc(C(F)(F)F)c2)CCN(Cc2nnnn2CCc2ccccc2)CC1
→ 136, -1.9, -90, 112, 8, i, 0.83
O=C(NCCc1csc(-c2ccccc2)n1)c1c(F)cccc1Cl
→ 93, x, -12, 68, 6, i, 0.94
O=C(CN1CCN(c2cccc(Cl)n2)CC1)N1CC(O)CO1 (stereo not given)
→ 102, x, 29, 102, 4, i, 1.1
CSc1nc(SCC(=O)O)c2sc3nc(-c4ccccc4)c4c(c3c2n1)CCC4
→ 94, x, x, x, x, i, 1.1
CS(=O)(=O)N(CC(=O)N1CCCCC1)C1CCCCC1
→ 95, -0.4, x, x, 0, i, 0.82
Cc1oc(C)c(C(=O)O)c1C(=O)O
→ 88, x, x, x, x, i, 1.1
Cc1ccc2nc(SCC(=O)N/N=C/c3ccco3)cc(C)c2c1
→ 92, x, -33, 119, -9, i, 0.91
O=C(CCCSc1nc2ccccc2c(=O)[nH]1)c1ccccc1
→ 93, x, 17, 87, -6, i, 0.96
O=S(=O)(NN1CCOCC1)c1ccc(Cl)s1
→ 92, x, x, x, 0, i, 0.91
O=C(Nc1nccs1)C1C2/C=C\CCCCC21 (stereo not given)
→ 102, -3.1, -44, 92, 0, i, 0.93
COc1ccc(C(=O)Nn2c(C)nnc2-n2nc(C)cc2C)cc1OC
→ 107, 0.0, 20, 183, -5, i, 0.78
Cc1cccc(/C=N/NC(=O)Cn2nnnc2N)n1
→ 105, x, x, x, x, i, 1.3
CCC(=O)Nc1ccc2c(c1)ncn2-c1ccc(OC)cc1
→ 102, -1.9, 24, 129, 1, i, 0.97
O=C(NCc1cccs1)c1cnn2cccnc12
→ 101, -1.2, 43, 84, -2, i, 1
OCC1(CO)COC2(CCCC2)N1
→ 99&99, -2.6, 11, 110, -6, i, 0.9
Nc1sc2c(c1C(=O)c1ccccc1)CCCC2
→ 146, -2.6, x, x, 1, i, 0.83
CCOC(=O)CSc1nc(C)c2cc(C)c(C)cc2n1
→ 101, x, x, x, -4, i, 0.99
O=C(NCCc1cccc(F)c1)[C@@H]1CSC2c3ccccc3C(=O)N21 (stereo not given in full)
→ 102, -1.5, x, x, -3, i, 0.93
CCCc1nc2c(=O)n(C)c(=O)[nH]c2n1CCC
→ 105, -1.9, x, x, -2, i, 1.1
O=C(Oc1c(Cl)cc(Cl)c2ccccc12)N1CCCC1
→ 105, -0.6, -17, 122, -1, i, 0.96
O=C(NCCNc1ccc([N+](=O)[O-])cc1)c1cccc(Br)c1
→ 106, -0.3, -10, 107, -13, i, 0.99
Cc1ccsc1/C=N/n1c(COc2ccccc2)n[nH]c1=S
→ 104, -0.7, -15, 138, 3, i, 1.2
CCOC(=O)c1c(N)sc2c1CCC1C(=O)N(C3CCCCC3)C(=O)C21 (stereo not given)
→ 94, 0.1, -269, 81, -3, i, 1.1
COc1ccccc1C(=O)N=Nc1c(O)[nH]c2ccc([N+](=O)[O-])cc12
→ 110, x, -111, 58, -4, i, 0.84
C=CCn1c(SCC(=O)c2ccccc2)nnc1-c1cc2ccccc2o1
→ 98, -0.3, x, x, -2, i, 0.78
CCOC(=O)C1CCCN(CCC(=O)Nc2cccc(C)c2)C1 (stereo not given)
→ 100, x, -7, 71, -2, i, 1
COc1ccccc1C(=O)NCC(=O)NC1CCCc2ccccc21 (stereo not given)
→ 102, x, x, x, -5, i, 0.98
Cc1nnc2c(NC3CCCC3)nc3ccccc3n12
→ 105, x, x, x, 3, i, 1
Cc1cccc(NC(=S)NC(=O)/C=C/c2ccco2)n1
→ 101, -0.2, 19, 104, -4, i, 0.94
CCCCCCCCOC(=O)c1ccc(N)cc1
→ 73, -1.6, 57, 98, -3, i, 1.1
CC(C)(C)n1nc2c(c1NC(=O)Cc1cccc3ccccc13)CS(=O)(=O)C2
→ 87, x, -178, 66, 0, i, 0.93
CCOC(=O)C(CCOc1cccc(CC)c1)C(=O)OCC
→ 101, -0.8, 0, 94, -9, i, 0.95
Cc1cc(C)c(NC(=O)CN)c(C)c1
→ 100, x, -59, 72, -3, i, 0.94
CCOc1ccc(NC(=O)NC(C)CC)cc1 (stereo not given)
→ 106, x, x, x, -2, i, 0.96
CC1CCC2C(=O)N(c3ccc(S(=O)(=O)c4ccccc4)cc3)C(=O)C2C1 (stereo not given)
→ 112, -0.7, -33, 146, -8, i, 0.97
O=Cc1ccc(Oc2ncccn2)cc1
→ 98, x, -23, 76, 1, i, 0.77

Whole records, quoted from the list.
Listed for CCOC(=O)C(CCOc1cccc(CC)c1)C(=O)OCC : RGS16-Gao HTS: 101; GALR2 ag: -0.8; INS promoter inh: 0; INS promoter inh cell count: 94; PKD1 kinase inh: -9; HSV replic up: i; HSV replic up primary fold: 0.95
Listed for CCOC(=O)c1c(N)sc2c1CCC1C(=O)N(C3CCCCC3)C(=O)C21 (stereo not given) : RGS16-Gao HTS: 94; GALR2 ag: 0.1; INS promoter inh: -269; INS promoter inh cell count: 81; PKD1 kinase inh: -3; HSV replic up: i; HSV replic up primary fold: 1.1

The listing continues:
Each structure is followed by: RGS16-Gao HTS, GALR2 ag, INS promoter inh, INS promoter inh cell count, PKD1 kinase inh, HSV replic up, HSV replic up primary fold
Cc1ccc2cc3cc(C(=O)N4CCN(Cc5ccccc5)CC4)sc3nc2c1
→ 193*[activator], -0.1, -39, 59, 4, i, 0.94
COc1cccc(O)c1CN1CCCC(C(=O)c2cccc(C(F)(F)F)c2)C1 (stereo not given)
→ 92, x, x, x, -3, i, 0.88
CC(C)(C)S(=O)(=O)/C(C#N)=N/Nc1ccc(Cl)cc1
→ 103, x, x, x, -3, i, 1
Cc1cc(NC(=O)c2cccs2)n(-c2nc3ccccc3[nH]2)n1
→ 102, x, x, x, -2, i, 0.78
Oc1c(Br)cc(Br)cc1/C=N/N1CCN(Cc2ccccc2)CC1
→ 103, -1.7, -2, 106, -2, i, 0.95
Cc1ccc(C(=O)Oc2ccccc2N2C(=O)C3CCC(C)CC3C2=O)cc1 (stereo not given)
→ 87, -1.8, -13, 87, -5, i, 0.87
CCC(C)OC1OC(CO)C(O)C(O)C1NC(C)=O (stereo not given)
→ 89, 0.7, x, x, -11, i, 1.1
Cc1ccc(C)c(N(CC(N)=O)S(C)(=O)=O)c1
→ 103, -2.5, -17, 145, -10, i, 1.1
O=C1CC2(CCCC2)C(=O)N1c1ccc(S(=O)(=O)NCC2CC2)cc1Cl
→ 98, x, x, x, x, i, 1.1
Cc1nnc(SCC(=O)Nc2c(Cl)cccc2Cl)[nH]c1=O
→ 90, -1.9, x, x, -11, i, 0.82
c1ccc(-c2noc(C34CC5CC(CC(C5)C3)C4)n2)nc1
→ 97, -1.6, -230, 78, -7, i, 1
CCOC(=O)NC(NC(=S)Nc1ccc(OCC)cc1)C(Cl)(Cl)Cl (stereo not given)
→ 103, -1.2, -23, 162, 5, i, 0.88
Cc1cc2ncn(C3CC(=O)N(C)C3=O)c2cc1C (stereo not given)
→ 105, -2.4, -32, 143, -2, i, 0.74
CC1(C)CC(=O)c2cnc(NCC3CCCO3)nc2C1 (stereo not given)
→ 99, -1.9, -38, 53, -5, i, 1.1
O=C(COC(=O)c1ccc(NS(=O)(=O)c2cccs2)cc1O)NCc1ccccc1
→ 110, x, -29, 100, 2, i, 0.82
CCCC(=O)c1c(NC(C)C)cc(C)oc1=O
→ 114, -0.5, x, x, -2, i, 1.1
Cc1c2n(c3ccccc13)CC/C2=N\O
→ 100, x, x, x, x, i, 0.97
COc1ccc(Cl)cc1NS(=O)(=O)c1cc(Cl)ccc1OC
→ 78, -0.3, 30, 174, 1, i, 0.94
CC1CCC/C(=N\NC(=O)COc2ccc(Cl)cc2Cl)C1 (stereo not given)
→ 104, 0.1, 7, 138, 6, x, x
COc1ccc(S(=O)(=O)N(Cc2ccc(OC)c(OC)c2)Cc2ccco2)cc1
→ 101, -1.8, x, x, -12, i, 0.9
N#C/C(=C/c1ccncc1)c1nc2ccccc2s1
→ 97, x, -128, 47, 5, u, x
Cc1cc(NC(=O)CSc2nnnn2-c2ccccc2)no1
→ 106, x, -15, 120, -5, i, 0.91
CCOC(=O)c1sc(Nc2nc3c(OC)cccc3s2)cc1C
→ 94, -1.0, 12, 163, -9, i, 0.85
O=C(CSCc1ccc(F)cc1)NCc1cccs1
→ 102, x, 22, 124, -10, i, 1.1
CNc1nnc(-c2ccco2)s1
→ 103, x, x, x, x, i, 0.91
COc1ccc(C(=O)/C=C2/c3ccccc3CC(C)(C)N2C)cc1OC
→ 104, -0.5, x, x, -7, i, 0.85
Cc1cc(C)nc(NC(=O)NS(=O)(=O)Nc2ccc(Br)cn2)n1
→ 102, -1.9, -36, 133, 7, i, 0.84
Cc1ccc(C2=NC(C)(C)NC2=O)cc1
→ 101, -2.1, 10, 115, -4, i, 0.96
CCOC(=O)N1CCN(C(=S)NC(=O)c2nn(C)cc2Br)CC1
→ 104, x, x, x, 5, i, 0.93
COc1ccc(C/C(C)=N/NC(=O)c2ccc(Cl)cc2)cc1
→ 102, x, 33, 154, -2, i, 0.83
N=C1c2c(cc(=O)n3c2[nH]c2ccccc23)CN1CCN1CCOCC1
→ 101, x, -155, 60, -7, u, x
O=C(NCCc1ccccc1)C1CCN(S(=O)(=O)c2ccc(-n3cnnn3)cc2)CC1
→ 106, -0.5, x, x, -7, i, 0.96
CCn1c(COc2ccc(Cl)c(C)c2)nnc1SCC(=O)N1CCCC1
→ 100, 0.5, -11, 74, -9, i, 0.97
